ALR H2O2 inh – inhibitors of human ALR sulfhydryl oxidase, primary screen, biochemical, H2O2 detection, HRP-luminol luminescence, single point. FAD-linked sulfhydryl oxidase ALR (Homo sapiens), P55789. purified ALR, DTT oxidation. inhibition, % (concentration not given with the values). 3.8% of 290,000 active;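 active means mean and each replicate at 75% or more; inconclusive means only one of the two met; inactive means neither met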;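 further: stock transfer was 7.5 nL into about 7.5 µL; 0% = neutral wells and 100% = wells with inactivated enzyme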
Target sequence (P55789 whole entry, looked up): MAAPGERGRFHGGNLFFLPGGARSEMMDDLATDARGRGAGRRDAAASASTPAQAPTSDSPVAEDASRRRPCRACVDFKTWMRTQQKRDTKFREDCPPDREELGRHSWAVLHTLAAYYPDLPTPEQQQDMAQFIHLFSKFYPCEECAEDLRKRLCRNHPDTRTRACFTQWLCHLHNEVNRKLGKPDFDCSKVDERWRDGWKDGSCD
LANA-H2B inh – blockers of LANA interaction with H2A/H2B – biochemical, FP readout, HTS, primary screen; cell-free LANA-H2A/H2B peptide, fluorescence polarization; inhibition, % (no concentration beside the values); 0.6% of 320,000 active; AID 2629, 2010; in the data active means inhibition mostly above about 10%, no sharp cut-off; inactive means mostly below about 6.7%;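 further: stock transfer was 7.5 nL into about 10 µL; 0% = median of vehicle wells and 100% = median of positive control wells; one replicate is shown; the record names a cut of 25% in any replicate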
Calb FLC – C. albicans growth inhibition with fluconazole, primary screen, CaCi-2 strain, Alamar Blue fluorescence; C. albicans CaCi-2 (fluconazole-resistant clinical isolate) + fluconazole, 48 h; growth inhibition, % (concentration not given with the values); 0.57% of 300,000 active;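 active means most replicates above 75%; inconclusive means exactly half above 75%; inactive means most below 75%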;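 further: all wells also contain fluconazole at 8 µg/ml as a sub-toxic cotreatment; 0% = median of DMSO wells and 100% = median of geldanamycin control wells; wells of about 8 µL received 7.5 nL stock; the first replicate is given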
RanGTP-Imp inh – inhibitors of RanGTP-importin-beta interaction, primary screen, biochemical, FRET, CFP-Ran, YFP-importin-beta, homogeneous; Ran GTPase (GTP-bound) - importin-beta complex; cell-free CFP-Ran/YFP-importin-beta FRET ratio; inhibition, % (concentration not given with the values); 1.1% of 300,000 active; AID 2216, 2009;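 active means most replicates above 15%; inconclusive means exactly half above 15%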;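 further: 0% = DMSO wells and 100% = Ran loaded with GDP instead of GTP; wells of about 40 µL received 100 nL stock; the first replicate is given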
Vif TR-FRET – inhibitors of Vif binding to APOBEC3G peptide, primary screen, biochemical, TR-FRET, GST-Vif 1-94, biotin-A3G peptide, dose response retest (AID 1117319); 0.57% of 260,000 active; inhibition, %, or IC50 in µM where a hit was titrated; TR-FRET GST-Vif / biotin-A3G peptide binding; higher % means a stronger effect; test concentration not given here; strong numbers were not always called active; Virion infectivity factor (Human immunodeficiency virus type 1 group M subtype B (isolate …;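 active means above the screen mean plus three standard deviations and confirmed in dose response; inconclusive means results disagree or hit not tested in dose response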;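 further: Vif residues 1-94 fused to GST binding biotinylated APOBEC3G peptide 110-148; 0% = full assay without inhibitor and 100% = GST in place of GST-Vif; retest series ran down from 100 µM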
Beta2AR agonist – beta2AR agonists driving receptor internalization, primary screen, cell-based, FAP fluorogen, flow cytometry | Beta-2 adrenergic receptor (Homo sapiens), P07550 | Am2.2-beta2AR cells; reference of the scale not given here | 0.43% of 340,000 active | response, % (test concentration not listed);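 active means response above a set limit, near 3 SD of response in nonfluorescent compounds, cut at about 42% in these data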;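 further: stock transfer was 100 nL into about 11 µL; a reference agonist was the positive control; negative values mostly stem from fluorescent compounds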
Target sequence (P07550 whole entry, looked up): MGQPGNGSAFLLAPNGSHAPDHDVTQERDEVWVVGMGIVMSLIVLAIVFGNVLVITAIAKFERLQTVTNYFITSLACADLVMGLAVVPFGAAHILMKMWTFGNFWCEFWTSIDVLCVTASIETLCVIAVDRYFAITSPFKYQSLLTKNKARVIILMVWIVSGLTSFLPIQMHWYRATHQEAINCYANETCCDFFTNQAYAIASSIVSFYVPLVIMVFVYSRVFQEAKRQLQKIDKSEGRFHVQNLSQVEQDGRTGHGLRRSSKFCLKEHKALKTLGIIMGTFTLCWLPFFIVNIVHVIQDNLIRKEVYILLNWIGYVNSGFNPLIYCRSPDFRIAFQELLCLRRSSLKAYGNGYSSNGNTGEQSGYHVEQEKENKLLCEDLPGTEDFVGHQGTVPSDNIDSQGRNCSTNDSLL
HNF4A DNA FP – change in binding of human HNF4A to DNA, primary screen, biochemical, fluorescence polarization, FITC-DNA. 1 h. activity change, % at 10 µM. 0.3% of 360,000 active. AID 1224865, 2016; in the data active means activity change above about 30%, passing the limit was not always enough;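 further: controls were the assay level and a saturating level of protein; the project sought stronger binding though the title names inhibitors; some compounds called inactive have numbers as strong as hits; positive values seem to mean higher polarization but the record does not say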
Target sequence (P41235 whole entry, looked up): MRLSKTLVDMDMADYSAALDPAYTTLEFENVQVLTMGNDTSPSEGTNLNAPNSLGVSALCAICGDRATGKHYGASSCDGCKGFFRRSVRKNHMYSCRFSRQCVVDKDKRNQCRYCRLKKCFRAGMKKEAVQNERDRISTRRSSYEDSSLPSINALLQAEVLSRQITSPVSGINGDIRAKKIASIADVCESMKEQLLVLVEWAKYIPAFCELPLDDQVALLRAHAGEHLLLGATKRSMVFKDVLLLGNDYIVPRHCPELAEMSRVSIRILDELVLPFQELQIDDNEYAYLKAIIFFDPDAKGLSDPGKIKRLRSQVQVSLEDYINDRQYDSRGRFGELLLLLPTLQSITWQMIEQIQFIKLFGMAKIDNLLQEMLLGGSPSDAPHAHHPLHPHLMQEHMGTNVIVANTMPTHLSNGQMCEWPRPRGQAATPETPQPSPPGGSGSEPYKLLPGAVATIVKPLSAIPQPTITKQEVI
* = called active by the depositor; ? = inconclusive; / = no result given; & = joins results of further samples.

SMILES | ALR H2O2 inh | LANA-H2B inh | Calb FLC | RanGTP-Imp inh | Vif TR-FRET | Beta2AR agonist | HNF4A DNA FP
C[C@@H](C(=O)NCc1ccc(S(C)(=O)=O)cc1)[C@H]1C[C@]1(C)[C@H](NC(=O)OCc1ccccc1)c1ccccc1 | -7 | 3.6 | / | / | 8% | / | /
Cc1c(O)ccc(C(=O)CN2CCN(c3ccc(F)cc3)CC2)c1O | 23 | 2.6 | -16 | -1.3 | / | 11 | 0.8
Nn1cnnc1SCC(=O)N(C1CCCCC1)C1CCCCC1 | 8 | -3.9 | 9 | 0.8 | -6% | -5 | 3.3
COc1cccc(C2c3c(oc4ccccc4c3=O)C(=O)N2Cc2ccco2)c1 (stereo not given) | -5 | 3.2 | -17 | 3.4 | / | 5 | -1.1
CN(CC(=O)N1CCN(Cc2ccccc2)CC1)S(=O)(=O)c1ccc(F)cc1 | 15 | -0.5 | -6 | 13 | / | 3 | -1.7
CCOC(=O)Nc1nc(-c2ccccc2)c(C(=O)c2ccccc2)s1 | 5 | 2.2 | 36 | 3.7 | -80% | 8 | 0.8
Cc1cccc(C(=O)OCC(=O)Nc2c(C)n(C)n(-c3ccccc3)c2=O)c1O | 15 | 1.6 | / | / | / | -5 | -2.7
CCn1c(C)nc2cc(S(=O)(=O)Nc3ccc(C)cc3)ccc21 | -13 | 5.6 | 7 | -4.0 | 3% | -2 | -4.7
Cc1cccc(C2=N/C(=C\c3cccs3)C(=O)O2)c1 | 1 | 8.9 | 1 | 1.5 | / | 9 | 0.7
Cc1nnc2c3ccccc3c(-c3ccc(O)cc3)nn12 | -10 | -4.9 | -8 | 5.3 | 0% | -6 | -1.6
Cc1ccc(-n2c(C)cc(C(=O)CSc3nnnn3C)c2C)cc1 | -2 | 2.3 | 14 | 3.7 | 14% | -8 | -4.8
Cc1ccc(S(=O)(=O)Nc2cc3c4c(c2)CC(=O)N4CCC3)cc1 | -5 | 7.7 | -2 | 3.0 | -2% | 2 | 3.3
CN(CC(=O)Nc1cc(S(=O)(=O)N2CCCC2)ccc1Cl)Cc1cccs1 | -4 | 0.6 | 9 | 2.0 | 1% | 2 | -1.0
COc1cccc(CN2CCNC(=O)C2CC(=O)N(C)Cc2nc(C)cs2)c1OC (stereo not given) | -18 | 6.1 | -8 | -6.4 | 2% | -3 | -1.5
CN(C)C(CNC(=O)C1CCN(S(=O)(=O)c2ccccc2)CC1)c1ccccc1 (stereo not given) | / | 4.0 | -4 | -1.2 | 24% | -5 | 1.3
COc1cc(Cl)c(CC(=O)c2c[nH]c3ccccc23)cc1OC | -6 | 1.2 | -1 | -1.7 | -7% | -6 | 2.2
Nn1c(Cc2ccc(F)cc2)n[nH]c1=S | 60 | -2.6 | -1 | -3.5 | -6% | 9 | -0.4
CCS(=O)(=O)N1Cc2ccccc2CC1C(=O)Nc1ccc(OC)cc1 (stereo not given) | -11 | 2.2 | -46 | 0.9 | / | -6 | -1.6
C=C(C)c1cccc(C(C)(C)NC(=O)NCCN(CC)CC)c1 | 0 | 3.1 | -20 | 0.7 | 22% | 4 | 3.5
Cc1cc(NC(=O)COc2ccc(C)c(C)c2)no1 | -13 | 2.4 | 2 | -4.5 | / | -4 | -1.1
CC(C)C(=O)N1CCC(c2nc(-c3ccc(S(=O)(=O)N4CCN(C)CC4)cc3)no2)CC1 | 1 | -3.5 | 6 | -0.2 | 3% | 6 | -2.1
Cc1noc(C)c1CSc1ncnc2sc3c(c12)CCC(C)C3 (stereo not given) | 5 | 1.8 | -9 | -1.4 | 1% | / | /
O=C1CC(c2cc([N+](=O)[O-])ccc2Cl)c2c(ccc3ccccc23)N1 (stereo not given) | / | / | 13 | -0.2 | / | 1 | -0.5
CC(=O)CSc1nc2c(c(=O)[nH]c(=O)n2C)n1Cc1cccc(Br)c1 | -8 | 3.5 | -12 | ? | / | -3 | -2.0
COC(=O)C1=C(C(=O)OC)C2(OC1c1cccc(F)c1)C(=O)c1ccccc1C2=O (stereo not given) | 25 | -10 | -5 | 5.1 | -4% | 0 | -4.1
COCCn1c(SCC(=O)c2cc(C)n(C)c2C)nc2ccccc2c1=O | 99* | 1.2 | 5 | 2.0 | 2% | 0 | -1.0
CCCCn1c(SCC(=O)NC2CCS(=O)(=O)C2)nnc1-c1ccc(OC)cc1 (stereo not given) | 0 | -6.6 | 0 | -3.4 | / | 6 | 1.2
Cc1ccsc1C(=O)OCC(=O)Nc1c(Cl)cccc1C(F)(F)F | -1 | 7.5 | 1 | -3.0 | ? | -5 | 2.2
Cc1cc(O)c(C(C)C)cc1N=C1CSC(=O)N1 | 60 | -0.7 | -10 | ? | 12% | 4 | -9.3
Cc1cc(C)c2cc(CN(CC3CCCO3)S(=O)(=O)c3ccc4c(c3)OCCO4)c(=O)[nH]c2c1 (stereo not given) | -2 | -8.0 | -11 | -1.4 | 20% | 27 | -1.0

Pulled by structure from above, 4 records:
SMILES | ALR H2O2 inh | LANA-H2B inh | Calb FLC | RanGTP-Imp inh | Vif TR-FRET | Beta2AR agonist | HNF4A DNA FP
Cc1cc(C)c2cc(CN(CC3CCCO3)S(=O)(=O)c3ccc4c(c3)OCCO4)c(=O)[nH]c2c1 (stereo not given) | -2 | -8.0 | -11 | -1.4 | 20% | 27 | -1.0
Cc1noc(C)c1CSc1ncnc2sc3c(c12)CCC(C)C3 (stereo not given) | 5 | 1.8 | -9 | -1.4 | 1% | / | /
CC(=O)CSc1nc2c(c(=O)[nH]c(=O)n2C)n1Cc1cccc(Br)c1 | -8 | 3.5 | -12 | ? | / | -3 | -2.0
O=C1CC(c2cc([N+](=O)[O-])ccc2Cl)c2c(ccc3ccccc23)N1 (stereo not given) | / | / | 13 | -0.2 | / | 1 | -0.5

Continuation.
SMILES | ALR H2O2 inh | LANA-H2B inh | Calb FLC | RanGTP-Imp inh | Vif TR-FRET | Beta2AR agonist | HNF4A DNA FP
Cc1cc(C)n2nc(SCC(=O)N3CCCC(C)C3)nc2n1 (stereo not given) | -3 | 3.1 | / | / | -4% | -8 | 3.8
Cc1nn(-c2ccccc2)c(C)c1C(=O)OCC(=O)Nc1ccc2c(c1)OCO2 | -4 | 8.4 | -1 | -0.8 | 4% | 6 | -1.0
O=C(Nc1ccccc1)N1CCCC(CNS(=O)(=O)Cc2ccccc2)C1 (stereo not given) | -2 | -3.6 | -1 | -5.0 | 8% | 4 | 2.6
Cc1nn(C)c(C)c1S(=O)(=O)N1CCC(C(=O)NCC2COc3ccccc3O2)CC1 (stereo not given) | -18 | -0.1 | -4 | 1.7 | -3%&-3% | 4 | 0.2
CC1(C(=O)O)CCC(C(=O)NC2CCCCC2)C1(C)C (stereo not given) | -2 | 0.5 | -20 | 0.0 | 22% | -2 | 3.0
O=C(NC(=S)Nc1ccc2[nH]ncc2c1)c1ccccc1 | / | -1.3 | 1 | -0.3 | -5% | 35 | -4.5
CN(CC(=O)Nc1cccc(F)c1)C(=O)CCCN1C(=O)c2cccc3cccc(c23)C1=O | -4 | 2.8 | 2 | -0.3 | -4% | 5 | -0.3
Cc1ccc(NC(=O)c2ccc(C(C)(C)C)cc2)cc1[N+](=O)[O-] | 6 | -3.1 | 0 | 3.5 | 19% | -1 | -2.1
O=[N+]([O-])c1ccc(Cl)c(C2Nc3cccc4cccc(c34)N2)c1 | -9 | -3.9 | 4 | -1.2 | 16% | 19 | -3.7
CCOC(=O)c1cnc2c(Cl)cccc2c1NCCN1CCOCC1 | 5 | 4.0 | 0 | 1.0 | ? | -1 | -0.5
Cn1c(CN2CCOCC2)nc2cc(NC(=O)COc3ccc([N+](=O)[O-])cc3)ccc21 | -6 | 2.7 | 63 | 0.4 | -3% | -3 | -0.4
COc1cc(NC(=O)Cn2c(=O)n(-c3cccc(C)c3)c(=O)c3c(C)c(C)sc32)cc(OC)c1 | -3 | -3.0 | -5 | ? | -1% | 3 | 6.0
Cc1ccc(CSc2ccc(S(=O)(=O)N3CCCC3)cn2)cc1 | -4 | 3.5 | / | / | 8% | 0 | 3.2
CC(C)N1CCNCC1 | -8 | -2.2 | -4 | 1.9 | 15% | 2 | -3.2
CCN(CC)C(=O)Cn1cnc([N+](=O)[O-])n1 | -23 | -2.4 | 1 | -1.6 | 4% | -2 | -2.8
COc1cccc(NC(=O)CN(C)C(=O)CCSc2ccc(C)cc2)c1 | -4 | 1.3 | / | / | -18% | 2 | -0.2
Cc1ccc(OCCCC(=O)Nc2ccc(S(N)(=O)=O)cc2)cc1 | -2 | 2.1 | 23 | -2.0 | -3% | 3 | 7.0
COc1ccc(NC(=O)CN2CCN(C(=O)C3CCCO3)CC2)c(OC)c1 (stereo not given) | -1 | -3.5 | / | / | / | -1 | 2.1
CCCCCN(C(=O)NC(=O)NC(C)CC)S(C)(=O)=O (stereo not given) | 2 | -0.1 | -5 | 0.0 | -1% | 6 | -2.9
O=c1cnn(-c2ccc(Cl)cc2Cl)c(-c2ccccc2)c1 | 1 | -0.5 | -13 | 1.0 | -10% | 26 | -4.4
O=C(CNCc1ccccc1)Nc1cccc(Cl)c1Cl | -3 | -10 | -5 | -0.8 | 3% | 4 | -1.9
CCOc1cc(C(=O)N(C)CC(=O)Nc2cccc(F)c2)ccc1OCC(=O)N1CCOCC1 | -1 | -3.4 | -6 | 0.7 | / | -2 | 1.1
CCCCCCCNC(=O)C1(CC2CC(c3ccc(Cl)cc3)=NO2)CCNCC1 (stereo not given) | 2 | -3.8 | 49 | 0.0 | / | 40 | -1.8
COc1ccc(NS(=O)(=O)c2cccs2)cc1S(=O)(=O)N1CCCCC1 | / | / | -4 | 6.5 | -5% | -4 | 5.4
OC1CCN(C(c2ccc3ncccc3c2)c2nnnn2C2CCCCC2)CC1 (stereo not given) | -8 | 1.5 | -1 | 1.2 | -2% | -6 | 0.2
COc1ccc(-c2noc(CN(C(=O)C(C)(C)C)C(C)C)n2)cc1 | -3 | -2.0 | -6 | -1.1 | ? | 0 | 0.5
COC(=O)CCC(=O)N1CN2CN(C(=O)CCC(=O)OC)CC([N+](=O)[O-])(C2)C1 | / | 0.4 | 5 | 3.6 | -2% | 0 | 2.2
Cc1cc(C)c2nc(N3CCN(C(=O)c4ccco4)CC3)sc2c1 | -1 | -5.9 | -9 | 5.4 | -9% | -1 | 0.7
CO/N=C/C(c1ncc(C(F)(F)F)cc1Cl)S(=O)(=O)c1ccccc1 (stereo not given) | -4 | -0.8 | -6 | 4.4 | / | 5 | 1.3
OCCN(Cc1ccccc1)Cc1cccc(F)c1 | 0 | 0.0 | 21 | -1.0 | 30% | 3 | -3.1
CCCCP(=O)(CCCC)Cc1ccccc1O | 36 | 3.4 | -3 | -1.8 | 4% | 0 | 2.6
CC1=C(C(=O)NC2CCCc3c2cnn3-c2ccc(F)cc2F)OCCO1 (stereo not given) | 89* | 2.1 | -12 | -1.5 | / | 0 | 0.2
Cc1ccc(-c2nnc(NC(=O)c3c(F)cccc3Cl)s2)cc1 | / | 3.5 | 0 | ? | / | -2 | -2.3
O=C(CSC1CN(C(c2ccccc2)c2ccccc2)C1)N/N=C/c1ccccc1 | -11 | -3.4 | -12 | -1.6 | / | 6 | -4.6
CS(=O)(=O)c1ccc(Cl)c(NC(=O)COC(=O)COc2ccc3c(c2)CCC3)c1 | 1 | -0.1 | -4 | 2.3 | 48% | -8 | -0.6
COc1ccccc1-n1c(SCC(=O)NC(C)(C)C)nc(O)cc1=O | -6 | -4.7 | -4 | 0.0 | 14% | -8 | 0.9

High-throughput results: PubChem BioAssay, several laboratories
